Assay outcomes deposited in PubChem by several laboratories.
Mtb betalactam = beta-lactam sensitization of Mtb H37Rv, H37Rv; AID 434955, 2010; M. tuberculosis H37Rv growth with meropenem, percent inhibition; hits of this screen are not shown here; inhibition, % at 25 µM; 330,000 compounds, 0.27% hits;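 active = about 74% or more and at least 40 points above the plate without the antibiotic, then above 30% in a dose series; inconclusive = first-round hits that could not be retested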;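 also: growth measured after seven days incubation then overnight dye step; 0% = bacteria only wells and 100% = bacteria with antibiotic; twin plates without the antibiotic show which effects depend on it; some results filed as inactive read as strong as hits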
Arbovirus inh = antivirals against arbovirus infection, primary screen, cell-based, full library, 10K replicate subset. arbovirus infection cell-based antiviral screen. inhibition, % at 10 µM. 200,000 compounds, 0.37% hits. AID 1251, 2008;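 active = inhibition from about 30%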;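 also: bluetongue infection of BSR cells; cell survival read as ATP light after 72 h; 0% = infected wells without compound and 100% = uninfected wells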
RecA intein inh = Mtb RecA intein splicing inhibitors, primary screen, biochemical, fluorescence, HTS; Protein RecA (Mycobacterium tuberculosis (strain ATCC 25618 / H37Rv)), P9WHJ3; cell-free RecA intein splicing; inhibition, %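 (about 9 µM by stock and volumes)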; 290,000 compounds, 0.75% hits; AID 2221, 2009; in the data active = inhibition above about 30%; inconclusive = no clear call, values can overlap the other calls;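 also: 0% = vehicle wells and 100% = reference inhibitor control wells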
Target sequence (P9WHJ3 whole entry, looked up): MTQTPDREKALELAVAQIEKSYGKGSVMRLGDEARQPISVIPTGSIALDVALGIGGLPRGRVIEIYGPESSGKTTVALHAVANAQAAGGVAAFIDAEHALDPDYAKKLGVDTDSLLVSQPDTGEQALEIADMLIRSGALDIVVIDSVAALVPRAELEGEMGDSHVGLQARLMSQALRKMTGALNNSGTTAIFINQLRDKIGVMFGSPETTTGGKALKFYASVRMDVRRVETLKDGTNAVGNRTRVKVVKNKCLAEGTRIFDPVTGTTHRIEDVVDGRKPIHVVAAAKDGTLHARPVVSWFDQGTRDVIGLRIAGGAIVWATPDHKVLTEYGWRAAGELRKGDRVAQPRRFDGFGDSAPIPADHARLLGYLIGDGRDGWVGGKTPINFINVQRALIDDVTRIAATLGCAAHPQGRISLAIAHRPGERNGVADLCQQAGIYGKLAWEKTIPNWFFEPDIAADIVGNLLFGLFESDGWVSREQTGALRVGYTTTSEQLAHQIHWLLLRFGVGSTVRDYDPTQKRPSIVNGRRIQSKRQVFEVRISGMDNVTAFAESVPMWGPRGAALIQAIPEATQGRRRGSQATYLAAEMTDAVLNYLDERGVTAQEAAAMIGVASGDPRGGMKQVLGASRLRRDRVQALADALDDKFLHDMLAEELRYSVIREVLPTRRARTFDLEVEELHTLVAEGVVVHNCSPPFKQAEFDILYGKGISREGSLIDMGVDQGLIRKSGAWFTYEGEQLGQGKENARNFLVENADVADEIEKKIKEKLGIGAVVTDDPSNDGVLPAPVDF
YopH inh = YopH tyrosine phosphatase inhibitors, primary screen, biochemical, fluorescence Ex485/Em525; YopH tyrosine phosphatase [Yersinia enterocolitica]; inhibition, %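 (about 10 µM by stock and volumes)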; 140,000 compounds, 0.16% hits;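 active = inhibition of 50% or more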;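 also: controls were vehicle for no effect and minimum signal wells for full effect; inactives centre near -20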
Mtb growth = M. tuberculosis H37Rv growth inhibitors, H37Rv strain (AID 1626); M. tuberculosis H37Rv growth inhibition; higher % means a stronger effect; one-dose inhibition, % at 10 µM; IC50 in µM for titrated hits; 220,000 compounds, 0.95% hits;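 active = confirmed in a dose series; inconclusive = inhibition above 80% but not taken into the dose series; inactive = below 80% or under 30% at every dose of the series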;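 also: bacteria incubated seven days before Alamar blue readout; 0% = bacteria only wells and 100% = bacteria with antibiotic wells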
Arbovirus inh repeat = recorded beside Arbovirus inh, whose call it bears; inhibition, %; measured here: 10K subset replicate screen; many hits read low in the repeat;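 first of two repeat runs on a subset; 0% = infected and 100% = uninfected wells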
* marks the source's active call; other numbers are inactive results; ? = inconclusive; . = not tested or not shown. These rows are one share of the data; count on the stated rates, not on these rows.

SMILES	Mtb betalactam	Arbovirus inh	RecA intein inh	YopH inh	Mtb growth	others
O=C(Nc1ccc(NC(=O)c2cccs2)cn1)c1ccccc1	-3	-7	-3.5	.	-3%
O=C1C2C3c4ccccc4C(c4ccccc43)[C@@H]2c2nc3ccccc3n21 (stereo not given in full)	3	8	2.7	10	1%
O=C(CCNc1cccc(Cl)c1)c1ccco1	100	5	2.2	-32	22%
Cc1ccc(N2CCN(C3=NC(=O)/C(=C\c4cccs4)S3)CC2)cc1	99	6	14	-20	56%
Cc1oc2c(c(C)cc3oc(=O)c(CC(=O)N[C@@H](CCCNC(N)=O)C(=O)O)c(C)c32)c1C	2	.	-14	.	.
O=c1cc(-c2ccccc2Cl)oc2cccc(O)c12	5	-5	2.9	-10	0%
CCN1CCN(S(=O)(=O)c2ccc(OC)c(Br)c2)CC1	-2	5	-3.0	-27	-2%
Cc1cc(OCc2cc(C(=O)N(Cc3nccn3C)C(C)C)no2)cc(C)c1Cl	5	.	-4.0	.	.
O=C(NC1CCCCCC1)c1cc2ccccc2oc1=O	-4	.	1.8	.	.
Cc1cccc(NC(=O)Nc2ccc([N+](=O)[O-])cc2)n1	-5	-7	0.2	.	3%
O=C(Nc1cccnc1)c1ccc(Br)c(S(=O)(=O)N2CCCC2)c1	3	.	1.7	.	.
CCCCNCC1C(Oc2ccc(Cl)cc2)C(=O)N1c1ccccc1C (stereo not given)	5	-23	3.5	.	4%
N#CCc1c(C#N)c(N)nc(N2CCN(c3ccc(F)cc3)CC2)c1C#N	8	-5	3.9	-19	-5%
O=C(Nc1cccnc1)c1cnc2ccccc2n1	37	-8	2.0	-15	-1%
COc1ccc2c(c1)SCC/C2=C\CN1C(=O)CCC1=O	-7	3	11	0	1%
O=C(COC(=O)c1ccccc1NCCO)NCCC1=CCCCC1	-12	.	-4.0	.	.
CCOC(=O)c1c(C)[nH]c(C(=O)CSc2nnc(C3CC3)n2N)c1C	-5	0	-1.6	6	-12%
Oc1ccccc1-c1nnc(COc2ccc(Cl)cc2Cl)o1	6	-5	3.5	-31	46%	Arbovirus inh repeat=-9
Cc1ccc(NC(=O)NCc2ccc3c(c2)OCO3)c(C)c1	1	-20	0.0	.	1%
O=C(Cc1cccs1)N1CCC2(CC1)OCCO2	.	1	-1.2	-23	0%
CC1Cc2ccccc2N1C(=O)COc1ccc2c(c1)OCO2 (stereo not given)	-4	-7	4.9	.	0%
O=C(NCc1ccccc1)C1=C[C@H](c2ccc(Br)cc2)C[C@H](OCc2ccc(CO)cc2)O1	0	-11	21	.	-7%
Cc1ccc(S(=O)(=O)c2cc(N3CCOCC3)nc(-c3ccccc3)n2)cc1	-11	1	-1.4	-26	.
CCCCCCCCN1[C@@H](CC(=O)O)c2ccc(C(F)(F)F)cc2S1(=O)=O	14	.	-26	.	-4%
S=C(NCCN1CCOCC1)N/N=C/c1c2ccccc2cc2ccccc12	-3	10	.	-2	-9%

Seven compounds picked at random from those above:
SMILES	Mtb betalactam	Arbovirus inh	RecA intein inh	YopH inh	Mtb growth	others
O=C(Nc1cccnc1)c1ccc(Br)c(S(=O)(=O)N2CCCC2)c1	3	.	1.7	.	.
O=C(Nc1cccnc1)c1cnc2ccccc2n1	37	-8	2.0	-15	-1%
N#CCc1c(C#N)c(N)nc(N2CCN(c3ccc(F)cc3)CC2)c1C#N	8	-5	3.9	-19	-5%
O=C(CCNc1cccc(Cl)c1)c1ccco1	100	5	2.2	-32	22%
CC1Cc2ccccc2N1C(=O)COc1ccc2c(c1)OCO2 (stereo not given)	-4	-7	4.9	.	0%
Cc1oc2c(c(C)cc3oc(=O)c(CC(=O)N[C@@H](CCCNC(N)=O)C(=O)O)c(C)c32)c1C	2	.	-14	.	.
CCOC(=O)c1c(C)[nH]c(C(=O)CSc2nnc(C3CC3)n2N)c1C	-5	0	-1.6	6	-12%

Additional entries follow:
SMILES	Mtb betalactam	Arbovirus inh	RecA intein inh	YopH inh	Mtb growth	others
Cc1csc(SCC(=O)NC2CCCCC2)n1	-8	1	-2.0	-4	-3%
CN1CCN(C(=S)SCC(=O)Nc2nc(-c3ccccc3)c(-c3ccccc3)o2)CC1	0	-10	0.5	-15	?
O=C1CSC(c2ccc(Cl)cc2)N1c1cccnc1 (stereo not given)	-8	.	-0.8	.	2%
CCCCn1c(SCC(=O)NC(=O)NCc2ccco2)nc2cc(S(N)(=O)=O)ccc21	10	7	1.5	-17	-5%
COc1ccccc1/C=N/NC(=O)c1sc(C)nc1C	1	6	-2.5	.	1%
Cc1cccc2cc(=O)[nH]c(C)c12	-20	5	-5.2	-26	-13%
CC1(C)Cc2cccc(OCC(=O)Nc3cccnc3Cl)c2O1	12	-2	-0.2	-6	-16%
COc1ccc(OC)c(S(=O)(=O)N2CCC(C(=O)NCc3ccc4c(c3)OCO4)CC2)c1	-1	.	2.3	.	.
Cn1c(=O)n(-c2cccc(Cl)c2)c(=O)c2c3c(sc21)COC(C)(C)C3	2	-2	0.5	-113	-6%
O=C(CNS(=O)(=O)c1ccccc1)Nc1ccc(C(F)(F)F)cc1	-8	3	-2.2	-20	2%
CC(C)=CCN1CCN(Cc2cccc3nonc23)CC1CCO (stereo not given)	-2	-2	-0.8	.	6%
COc1ccccc1Nc1nnc(SCC(=O)N2CCCC2=O)s1	-8	-3	-4.2	-25	-5%
O=C(NCCc1ccccc1)c1nc2nc(-c3cccs3)cc(C(F)(F)F)n2n1	-1	-4	-4.0	-2	0%
COCCNC(=O)C(=O)c1c(-c2ccccc2)[nH]c2ccccc12	-7	0	-39	.	-10%
Cn1nc([N+](=O)[O-])nc1Oc1ccc2ccccc2c1	-6	6	-3.2	-31	3%
CCN(CC)S(=O)(=O)c1ccc(C(=O)OCCNC(=O)c2cccnc2)cc1	3	-6	-0.1	-1	-7%
O=C(COC(=O)/C=C/c1ccc(Cl)cc1)NCCN1C(=O)CSC1=O	-3	1	-2.3	.	0%
Cc1ccn2c(=O)c(C(=O)NCCC3=CCCCC3)c(O)nc2c1	9	.	6.6	.	.
O=C(NCC(c1ccc(F)cc1)N1CCOCC1)c1cccnc1Sc1ccc(Cl)cc1 (stereo not given)	-11	.	6.3	.	.
O=[N+]([O-])c1ccc(Cl)c(-c2ccc(/C=N/n3cnnc3)o2)c1	1	.	7.5	.	.
CCN(CC)C1=NC=CC(c2ccccc2)=CC1C (stereo not given)	1	5	0.0	-13	-4%
CC(C)(C)c1ccc(OCCC(=O)NCCc2ccc(S(N)(=O)=O)cc2)cc1	-4	.	0.5	.	.
CC(C)c1ccc(S(=O)(=O)c2ccc(NN)cc2)cc1	.	-4	.	.	12%
Cc1ccc(-n2nnnc2Sc2ccc(S(=O)(=O)NCCN(C)C)cc2[N+](=O)[O-])cc1	36	-39	28	-32	4%
C#CCNC(=O)C1=C[C@H](c2ccccc2)C[C@H](OCCCCO)O1	-5	-1	-0.4	.	-10%

The list continues.
SMILES	Mtb betalactam	Arbovirus inh	RecA intein inh	YopH inh	Mtb growth	others
CC1CCCCC1N=CC1=C(O)CC(C)(C)CC1=O (stereo not given)	-6	11	0.9	-29	1%
Cc1ccc(CNC(=O)C(NS(=O)(=O)c2cccc3nsnc23)C(C)C)cc1 (stereo not given)	0	.	2.1	.	.
Clc1ccc2[nH]c3c(c2c1)CCNC3	-4	.	0.6	.	.
CCC1CCCCN1CCCNC(=O)Cn1c(=O)c2cccn2c2cccnc21 (stereo not given)	-4	.	-4.7	.	.
Cc1ccc(C(=O)CC(=O)c2cccc(F)c2)c(O)c1	98	-12	2.1	-4	21%
COc1ccc(C(=O)OC2CC[C@@]3(C)C4CCC5[C@]6(O)CC(O)[C@@]7(O)C(CN8CC(C)CCC8[C@@]7(C)O)[C@]6(O)C[C@@]53O[C@]24O)cc1OC (stereo not given in full)	0	.	-1.7	.	-5%
CCN(CC)C(=O)COc1cc(C)cc2oc(=O)c3c(c12)CCCC3	-9	.	1.8	.	.
COc1cc2[nH]ccc(=O)c2cc1OC	-5	-5	-5.0	-25	-8%
COc1cccc(CN2CCN(Cc3ccc(O)cc3)CC2CCO)c1 (stereo not given)	1	-10	11	.	6%
CC(=O)Nc1nc2c(c3c1c(=O)oc1ccccc13)CCCCC2	-1	5	-3.1	-24	.
O=C(NC1CCCCC1)N1CCCC(c2nc3ccccc3[nH]2)C1 (stereo not given)	-8	1	0.2	-28	1%
O=C(NCCc1ccccc1)c1ccc(-c2ccccc2Cl)o1	13	-10	3.7	-23	6%
COc1ccccc1C(=O)n1nc(-c2ccco2)nc1N	30	3	8.7	-9	.
Cc1ccc(Cn2ncc3c(N4CCCC4)ncnc32)cc1	9	3	-5.0	-30	-17%
Cc1cc(C(C#N)c2ccc(Cl)cc2)c(Cl)cc1NC(=O)c1cc(I)cc(I)c1O (stereo not given)	-6	.	4.6	.	.
C/C(N)=C(/C#N)C(=O)CSc1n[nH]c(-c2cccs2)n1	-6	4	1.1	.	7%
O=C1c2cccnc2C(=O)N1Cc1ccc(Cl)cc1	1	0	0.6	-4	-7%
CC(C)CC(NC(=O)C1CCC(C)CC1)C(=O)Nc1cccnc1 (stereo not given)	?	8	-0.1	-30	-9%	Arbovirus inh repeat=5
O=C1CCc2cc(S(=O)(=O)Nc3ccc(C(F)(F)F)cc3)cc3c2N1CC3	-4	.	2.3	.	.
Cn1c(=O)c2c(nc(CN3CCc4ccccc4C3)n2CC(=O)c2ccccc2)n(C)c1=O	-3	.	3.8	9	8%
O=C(NC(=S)Nc1cccc([N+](=O)[O-])c1)C1CCCCC1	3	.	0.7	.	.
Cc1cccn2c(=O)c(C(=O)NCCCN3CC(C)CC(C)C3)c(O)nc12 (stereo not given)	-12	.	-1.9	.	.
O=C(Nc1cccc(Cl)c1)c1cc(-c2ccco2)on1	16	.	0.9	.	.
COc1ccc(C(=O)N2CCCC(Nc3ccc(C)c(C)c3)C2)cc1 (stereo not given)	7	.	1.1	.	.
CC(=O)Nc1ccc(S(=O)(=O)N(C)Cc2cnn(C)c2)cc1	-2	.	1.2	.	.

Other records.
SMILES	Mtb betalactam	Arbovirus inh	RecA intein inh	YopH inh	Mtb growth	others
COc1ccc(/C=N/NC(=O)CCc2c(C)n[nH]c2C)cc1O	-8	4	-3.8	-10	-3%
CCOC(=O)c1c(C)[nH]c(C)c1-c1ccccc1OC	4	2	-1.8	-22	-1%
Cn1cccc1Cc1nnc(SCC(=O)N2CCN(c3ccccc3)CC2)n1-c1ccc(F)cc1	5	-7	-3.8	-19	2%
COC(C[C@H]1O[C@H]1[C@@H](O)[C@H](C)OCc1ccccc1)OC	.	.	1.4	.	-8%
CC1(C)CC(N(Cc2ccccc2)C(=O)Cc2ccccc2)CCO1 (stereo not given)	3	1	1.6	.	-3%
Clc1ccc(OCCn2cnc(Cl)c2Cl)cc1	-7	.	6.0	.	20%
COc1ccccc1C(CC(=O)Nc1nccs1)c1ccco1 (stereo not given)	-7	0	-0.3	-25	-11%
CN(Cc1ccccc1)S(=O)(=O)c1nnc(NC(=O)c2ccccc2)s1	4	.	-4.2	.	.
COc1ccc(CCNC(=O)CSc2nnc(-c3cccc(F)c3)o2)cc1OC	-3	-3	-8.1	-50	-4%
COc1ccccc1NC(=O)Cn1cc(C(=O)c2ccco2)c2ccccc21	0	-6	-1.6	.	-4%
Cc1nnc(SCC(=O)NCCN2C(=O)CSC2=O)s1	3	2	0.7	6	-4%
COc1ccc(CNC(=O)C2CCNCC2)cc1	-9	5	-0.1	2	-9%
c1ccc(Cn2nnc3c(N4CCc5ccccc5C4)ncnc32)cc1	87	-8	7.3	-44	5%
COc1ccc(-c2csc(NC(=O)CN3C(=O)C4CCCCC4C3=O)n2)c(OC)c1 (stereo not given)	10	.	4.2	.	.
Cc1ccc(NC(=O)CSc2nnc(-c3cc(C)[nH]n3)n2N)c(C)c1	6	.	-1.6	.	.
O=[N+]([O-])c1ccc(-c2cn(-c3ccccc3F)c(=S)[nH]2)cc1	-12	-7	8.1	.	-5%
O=C(CN1C(=O)COc2ccccc21)N1CCN(C2CCCCC2)CC1	-2	.	-0.2	.	.
CCn1ccnc1CN1CCC(n2nccc2NC(=O)CCc2ccccc2)CC1	3	.	-5.4	.	.
Cc1ccc(S(=O)(=O)N/N=C\c2cc3c(cc2[N+](=O)[O-])OCO3)cc1	2	4	-0.1	-38	-5%
CC(=O)NC1=NC(=O)/C(=C/N2CCOCC2)S1	-8	14	-2.0	-28	-11%
COc1cccc(NC(=O)CSc2nc3ccccc3c(=O)n2CCCC(=O)NCC2CCCO2)c1 (stereo not given)	5	.	-0.1	.	.
C/C(CC(=O)N1CCN(C=O)CC1)=N\NC(=O)c1ccc(Cl)cc1	5	-2	3.0	.	-4%
